Beta cell apopt = blocks beta cell apoptosis; 300,000 tested, 0.8% active; AID 435005; protection from apoptosis, % (concentration not given with the values); INS-1E cytokine-induced death, ATP luminescence, 48 h; percent of positive-control rescue, neutral wells zero;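 active means all replicates at 75% or more, or half of them and the mean; inconclusive means half reach 75% but not the mean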;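 further: 0% = cytokine-treated negative control wells and 100% = positive control rescue; higher means more ATP so stronger rescue from cytokine killing; wells of about 40 µL received 100 nL stock; the first replicate is given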
Calb FLC = affects C. albicans growth with fluconazole. C. albicans CaCi-2 (fluconazole-resistant clinical isolate) + fluconazole, Alamar Blue growth, 48 h. growth inhibition, % (concentration not given with the values). 300,000 tested, 0.57% active. AID 1979;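 active means most replicates above 75%; inconclusive means exactly half above 75%; inactive means most below 75%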;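 further: all wells also contain fluconazole at 8 µg/ml as a sub-toxic cotreatment; 0% = median of DMSO wells and 100% = median of geldanamycin control wells; wells of about 8 µL received 7.5 nL stock; the first replicate is given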
Bfl-1 A1 inh = inhibitors of the anti-apoptotic protein A1, read as caspase activation | MEF A1-2A-BIM cells, Caspase-Glo 3/7 luminescence, 3 h; percent of clofoctol response, vehicle zero | caspase activation, % (concentration not given with the values) | AID 2462 | 330,000 tested, 0.066% active;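 active means over half of replicate activation scores above 10%, or exactly half above 10 with the replicate mean above 10; inconclusive means replicate mean below 10 yet half the replicates above 10; inactive means over half of replicates below 10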;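 further: wells of about 30 µL received 50 nL stock; many hits fall short of the cut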
AF4-AF9 inh = MLL-AF4/AF9 protein interaction inhibition; AlphaScreen, biotin-AF4 peptide binding to FLAG-AF9; inhibition, % at 10 µM; 350,000 tested, 0.47% active;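 active means every replicate reaching a set inhibition limit, whatever the replicate mean, cut at about 25% in these data; inconclusive means mean inhibition reaches that limit but some replicates miss it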;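 further: 0% = plate neutral control median and 100% = total signal loss; the record names both 10 and 1 µM as test concentration; the first replicate is given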
Target sequence (P42568 whole entry, looked up): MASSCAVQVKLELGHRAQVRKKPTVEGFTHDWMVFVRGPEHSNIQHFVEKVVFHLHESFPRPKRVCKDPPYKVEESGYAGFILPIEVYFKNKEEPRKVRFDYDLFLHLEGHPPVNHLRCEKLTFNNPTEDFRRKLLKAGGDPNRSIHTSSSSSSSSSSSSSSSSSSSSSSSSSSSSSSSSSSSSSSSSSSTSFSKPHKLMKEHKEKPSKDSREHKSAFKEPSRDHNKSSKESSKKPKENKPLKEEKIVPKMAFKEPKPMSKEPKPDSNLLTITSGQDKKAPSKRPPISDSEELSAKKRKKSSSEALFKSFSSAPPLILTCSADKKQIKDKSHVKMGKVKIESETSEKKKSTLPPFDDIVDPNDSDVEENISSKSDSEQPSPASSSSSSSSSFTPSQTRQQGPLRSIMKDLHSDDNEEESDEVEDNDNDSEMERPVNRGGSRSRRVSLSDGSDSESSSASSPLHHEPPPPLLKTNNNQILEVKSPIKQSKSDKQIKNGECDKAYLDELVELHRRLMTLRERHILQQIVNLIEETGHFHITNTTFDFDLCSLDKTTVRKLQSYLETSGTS
Vif A3G = inhibitors of Vif binding to APOBEC3G peptide, primary screen, biochemical, TR-FRET, GST-Vif 1-94, biotin-A3G peptide, dose response retest (AID 1117319); inhibition, %; hits with a dose series show IC50 in µM; 260,000 tested, 0.57% active; TR-FRET GST-Vif / biotin-A3G peptide binding; higher % means a stronger effect; test concentration not given here; strong numbers were not always called active;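 active means above the screen mean plus three standard deviations and confirmed in dose response; inconclusive means results disagree or hit not tested in dose response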;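 further: Vif residues 1-94 fused to GST binding biotinylated APOBEC3G peptide 110-148; 0% = full assay without inhibitor and 100% = GST in place of GST-Vif; retest series ran down from 100 µM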
RanGTP-Imp inh = disruptors of Ran-importin-beta complex formation – biochemical, FRET, CFP-Ran, YFP-importin-beta, homogeneous, primary screen | cell-free CFP-Ran/YFP-importin-beta FRET ratio | inhibition, % (no concentration beside the values) | 300,000 tested, 1.1% active;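 active means most replicates above 15%; inconclusive means exactly half above 15%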;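 further: 0% = DMSO wells and 100% = Ran loaded with GDP instead of GTP; wells of about 40 µL received 100 nL stock; the first replicate is given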
T cruzi inh = T. cruzi replication inhibition | T. cruzi beta-gal in NIH3T3, luminescence, 90 h | inhibition, % (no concentration beside the values) | 300,000 tested, 1.4% active;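 active means mean inhibition across valid replicates above about 55%, limit read from the data; inconclusive means mean below that limit but half or more replicates reach it; inactive means mean below it, under half of replicates reach it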;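 further: signal also drops with host cell toxicity which is not excluded here; 0% = plate median of DMSO wells and 100% = zero luminescence signal; higher percent means less beta-gal luminescence so fewer parasites; stock transfer was 50 nL into about 50 µL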
rRNA inh HTS = inhibits bacterial ribosomal RNA function over humanized ribosomes | 350,000 tested, 1.6% active | E. coli WT GFP vs humanized-ribosome RFP mutants, fluorescence, 24 h; hits give low values; DMSO median 0, no signal -100 | AID 720706 | GFP signal change (wild-type ribosome), % (test concentration not listed);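 active means significant combined selectivity score with lowered wild-type GFP, culture density cut under 30%, mutant RFP and density less affected; inactive means any of these conditions unmet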; further: one replicate is shown; some compounds called inactive have numbers as strong as hits
rRNA inh HTS OD600 = recorded beside rRNA inh HTS, whose call it bears; OD600 change, %; measured here: OD600 growth;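 optical density of the mix in the first replicate; 0 = DMSO median and -100 = no signal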
rRNA inh HTS RFP = also measured in rRNA inh HTS; calls as there; RFP signal change, %; measured here: RFP humanized mutant strains;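 first replicate; 0 = DMSO median and -100 = no signal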
* hit, by the source's call; u = inconclusive; x = no result given; & = joins results of further samples. Some of the compounds tested (hit frequency here may not be typical).

SMILES	Beta cell apopt	Calb FLC	Bfl-1 A1 inh	AF4-AF9 inh	Vif A3G	RanGTP-Imp inh	T cruzi inh	rRNA inh HTS	rRNA inh HTS OD600	rRNA inh HTS RFP
CC1Cc2cc(/C(O)=C3\C(=O)C(=O)N(Cc4ccncc4)C3c3ccccc3F)ccc2O1 (stereo unspecified)	-1	-8	1.0	-0.5	-2%	-0.3	-45	6	2	3.9
COc1ccccc1CNS(=O)(=O)c1ccc(-n2cnnn2)c(OC)c1	-4	-3	0.1	0.2	0%	-0.2	-9	x	x	x
CCn1c(SCC(=O)Nc2cc(C)on2)nc2c(c1=O)SCC2	-9	-1	-1.2	0.0	x	-1.2	-10	1	-4	-0.4
COC(=O)c1cc(NC(=O)CSc2nnc(N)s2)ccc1Cl	2	10	0.2	-0.7	0%	1.9	-11	-22*	-17*	-4.2*
N#Cc1ccccc1S(=O)(=O)N1CCN(C(=O)c2ccc(-n3cncn3)c([N+](=O)[O-])c2)CC1	-4	1	-0.4	2.1	4%	2.8	-1	-8	7	-3.3
Cc1ccc(S(=O)(=O)NCC(=O)OCC(=O)NC(=O)NC2CCCC2)cc1	-8	-20	1.2	-0.9	x	2.0	-5	7	10	2.8
C/C(=N\OC(=O)c1cccc(C(F)(F)F)c1)c1sc(-c2ccccc2)nc1C	2	9	-4.3	x	5%	2.6	-20	x	x	x
COCCn1c(SCC(=O)c2ccc3c(c2)OCCO3)nnc1-c1ccco1	-1	19	-0.1	x	3%	1.3	-4	x	x	x
CC(C)(C)c1n[nH]c(=S)n(/N=C/c2cccs2)c1=O	-3	1	0.0	4.6	x	1.2	-28	10	12	-6.4
Cc1ccc2c(Cl)cc(Cl)c(OCC(=O)Nc3cc(S(=O)(=O)N(C)C)ccc3C)c2n1	14	-17	0.3	1.5	0%	1.6	2	-11	-22	-4.1
COc1cccc(/C=C2\SC(N3CCCC(C)C3)=NC2=O)c1OC (stereo unspecified)	0	-7	-0.2	0.6	-1%	-7.0	2	-5	-25	2.6
NC(=O)Nc1ccc(C(=O)OCC(=O)NC2CCCc3ccccc32)cc1 (stereo unspecified)	-2	x	1.2	0.8	-4%	x	x	-4	-2	-1.6
O=C(CC1C(=O)NCCN1Cc1ccccc1C(F)(F)F)NC1CCCCCC1 (stereo unspecified)	0	-1	1.0	1.2	x	-0.7	2	-12	-13	3.4
S=C(NCc1ccco1)Nc1ccc(Cl)c(Cl)c1	-6	-6	0.2	-7.1	2%	-2.1	17	-31	-54	-12
CCN(CC)S(=O)(=O)c1ccc2oc(C(=O)NCCN3CCOCC3)c(C)c2c1	-1	7	-0.8	2.9	7%	5.1	-1	4	4	-5.4
COc1ccc(NC(=S)N(CCCN2CCOCC2)Cc2ccco2)cc1	-7	-18	-1.4	0.0	-7%	0.6	-5	10	6	2.1
N#Cc1nc(-c2cccs2)oc1NCC1CCCO1 (stereo unspecified)	x	3	0.4	-2.4	-7%	5.0	-11	-3	1	-0.9
Cc1cc(/C=C(\C#N)C(=O)NCc2ccco2)c(C)n1-c1ccc(C(=O)O)cc1	-2	-2	-0.2	1.6	-1%	-2.4	-11	-17	-32	-7.9
C=CCn1c(SCC(=O)NCc2ccc3c(c2)OCO3)nc2scc(-c3ccccc3)c2c1=O	-6	x	1.9	x	-41%	-4.7	9	x	x	x
C#CCOCCOCCOCCNc1nc(N2CCN(C(=O)[C@H](CCCCN)n3cc(CN)nn3)CC2)nc(N2CCN(C(=O)[C@H](CCCCN)n3cc([C@@H](N)[C@H](C)CC)nn3)CC2)n1	-7	x	-0.3	64*	x	x	x	10	5	19
O=C(CN1C(=O)c2cccc3cccc1c23)Nc1ccc(S(=O)(=O)N2CCOCC2)cc1	-1	-2	-0.6	x	4%	6.1	1	x	x	x
Cc1cc(F)ccc1S(=O)(=O)N1CCCCC1CCNC(=O)C(=O)NCc1ccccn1 (stereo unspecified)	4	-1	0.4	-6.7	0%	-1.9	8	1	-1	0.5
COc1ccc(N(C)S(=O)(=O)c2ccc(Cl)c(C(=O)NCCc3ccc(Cl)cc3)c2)cc1	11	21	0.0	-1.2	x	-4.5	49	-17	-12	4.2
NC(=O)NC(=O)Nc1ccccc1Cl	-4	-4	-0.6	x	-4%	-2.1	-8	x	x	x
NC(=O)C1CCN(C(=O)COc2ccc3c4c(c(=O)oc3c2)CCCC4)CC1	0	-10	0.8	-2.1	x	-0.4	6	x	x	x

Later entries.
SMILES	Beta cell apopt	Calb FLC	Bfl-1 A1 inh	AF4-AF9 inh	Vif A3G	RanGTP-Imp inh	T cruzi inh	rRNA inh HTS	rRNA inh HTS OD600	rRNA inh HTS RFP
COc1cccc(/C=N/c2nc3ccccc3n2C)c1O	-4	-17	0.0	0.9	x	-2.8	-9	x	x	x
N#CCCn1cc(C(=O)Nc2ccc(C(=O)O)cc2)c(-c2ccc([N+](=O)[O-])cc2)n1	-10	5	0.5	1.7	-11%	-5.0	-3	17	19	-1.4
O=C(CSc1nc(=O)n(Cc2ccccn2)c2c1CCC2)Nc1ccc(F)cc1F	-2	12	1.3	-16	-8%	0.4	2	7	-10	1.1
CCCCc1ncc(CN2CCC(n3nccc3NC(=O)C(OC)c3ccccc3)CC2)[nH]1 (stereo unspecified)	-13	-1	0.5	2.6	x	-0.6	-8	4	16	1.0
COc1ccc(CCn2cc(C#N)c(=O)[nH]c2=O)cc1OC	0	18	0.3	-2.5	-3%	4.7	-3	21	16	2.6
CC1(C)CC(=O)C(C#N)=C(NCCCO)C1	0	-7	-0.1	x	1%	0.1	-13	x	x	x
O=C(c1ccccc1F)N1CCN(Cc2ccccc2F)CC1	-1	-3	0.7	x	1%	-1.1	x	x	x	x
Cc1cc(C)cc(N2Cc3ccccc3C2)c1	3	-3	0.1	5.4	11%	7.3	14	-12	19	-4.7
Nc1ccc(-n2ccnc2)cc1	-2	7	0.0	x	8%	-4.7	-9	x	x	x
O=C(COC(=O)c1ccc(F)c(S(=O)(=O)N2CCOCC2)c1)NCc1ccccc1	-2	x	0.5	3.6	-8%	x	x	2	-2	3.5
O=C(c1ccco1)N1CCN(C2CC(=O)N(c3ccc4c(c3)OCO4)C2=O)CC1 (stereo unspecified)	-2	-9	-0.5	x	1%	3.2	-18	x	x	x
O=C(CCNC(=O)c1ccco1)NCc1ccc(F)cc1	-3	x	-0.6	0.7	x	x	x	8	14	-1.6
Cc1ccc(C(=O)N/C(=C/c2ccc(-c3cccc([N+](=O)[O-])c3)o2)C(=O)NCCCN(C)C)cc1	x	17	0.8	16	x	0.7	10	-9	-1	0.1
CCOc1ccc(-c2c(C(=O)N/N=C(\C)c3ccco3)nnn2-c2nonc2N)cc1	-1	20	-1.2	-1.7	x	3.9	16	1	7	-4.3
O=C(CSc1nc(O)cc(=O)n1C1CCCC1)Nc1cccc(Cl)c1Cl	x	3	-0.1	-0.9	13%	-5.7	-3	-6	-1	2.1
CC(NC(=O)CCc1nnc(-c2ccc(-c3ccccc3)cc2)o1)c1nc2ccccc2[nH]1 (stereo unspecified)	x	15	0.5	1.5	-3%	-0.5	-4	-45	-52	14
Cc1cnc(C(=O)OCC(=O)Nc2ccc(Cl)cn2)cn1	1	-2	1.7	-1.2	12%	8.3	-19	5	5	-0.9
COC(=O)N1C(=O)[C@](c2ccsc2)(C(C)C)N1C(=O)OC	-28	-17	0.3	-7.9	x	0.2	17	20	16	0.7
O=C(CCc1c[nH]c2ccccc12)N1CCN(c2ccc(O)cc2)CC1	2	-25	-0.4	2.4	13µM*	1.7	-50	-29*	-17*	1.4*
CCOc1ccc(C(=O)NCC(=O)Nc2cc(C)ccn2)cc1OCC	-7	x	0.7	1.1	-1%	x	x	10	8	0.0
COC(=O)c1cc(S(=O)(=O)N(C)C2CCCCC2)oc1C	1	-2	1.1	1.7	-4%	1.2	0	-27*	-9.6*	-0.9*
COc1ccc(OC)c(CN2CCN(S(=O)(=O)c3ccc(NC(C)=O)cc3)CC2)c1	0	-5	-0.3	-9.0	x	-1.5	-1	-1	-11	2.3
Cn1ncc(Cl)c1C(=O)N1CCc2ccccc21	-16	-6	-0.6	x	-3%	-2.1	-16	x	x	x
O=C1N/C(=N\N=C\c2cccs2)SC1Cc1cccc(Cl)c1Cl (stereo unspecified)	4	6	0.1	x	u	0.7	-51	x	x	x
CC(=O)Nc1ccc(S(=O)(=O)N2CCN(c3cnn(C)c(=O)c3Cl)CC2)cc1	0	-11	0.3	-2.0	5%	-1.4	5	5	7	1.0

The listing continues:
SMILES	Beta cell apopt	Calb FLC	Bfl-1 A1 inh	AF4-AF9 inh	Vif A3G	RanGTP-Imp inh	T cruzi inh	rRNA inh HTS	rRNA inh HTS OD600	rRNA inh HTS RFP
Cc1ccc(N(Cc2ccccc2)C(=O)c2ccc(Cl)c(S(=O)(=O)N3CCOCC3)c2)cc1	1	-1	0.0	2.6	1%	-2.6	29	4	6	-0.1
Cc1cc(C)c(C)c(S(=O)(=O)N2CCC(C(=O)N3CC(C)CC(C)C3)CC2)c1C (stereo unspecified)	5	0	1.0	-16	7%	0.7	8	0	-2	-3.2
CN(C)c1ccc(C2C3=C(CCCC3=O)OC3=C2C(=O)CCC3)cc1	3	2	-0.2	x	u	4.2	12	x	x	x
Cc1cc(C)c(C(=O)CSc2nc(C)cc(C)c2C(N)=O)c(C)c1	7	14	1.0	x	13%	-2.3	4	x	x	x
CCc1nnc(NC(=O)CCC(=O)NC2CCCC2)s1	-8	3	1.8	-0.3	x	-1.3	-1	8	12	-0.3
CCOC(=O)CSc1nnc(-c2ccco2)n1C	2	2	0.5	x	75%	0.1	-2	x	x	x
O=C(O)C1CC=CCC1C(=O)NCCc1ccccc1 (stereo unspecified)	-3	7	0.4	x	3%	u	-5	x	x	x
OCCC1CN(Cc2ccc(F)cc2)CCN1CCCc1ccccc1 (stereo unspecified)	x	-5	1.7	0.9	3%	-2.9	-9	2	9	2.8
Cc1cccc(C(=O)NCCN2CCCC2)c1	1	-1	0.1	x	15%	-2.6	0	x	x	x
CCOC(=O)CCNC(=O)Nc1ccc2nc(C)n(Cc3ccccc3Cl)c(=O)c2c1	4	11	0.7	x	-7%&-1%	1.9	-13	x	x	x
CCOc1ccccc1N1CCN(C(=O)CNC(=O)c2sc3ccccc3c2Cl)CC1	2	-5	-0.5	0.6	15%	-1.2	5	-5	-5	1.8
O=C(COc1ccc2c(c1)C(=O)CC1(CCCCC1)O2)NCc1ccccc1	-20	-12	-1.4	x	-3%	-3.8	-1	x	x	x
CCc1ccc(-c2ccc(C(=O)O)c(C)n2)cc1	1	1	-8.1	x	-2%	3.0	-2	x	x	x
COc1ccc(-c2nc3ccccc3c(=O)n2NC(=S)N(C)C)cc1	-4	-24	-0.2	x	x	2.6	-19	x	x	x
